Bioassay records: PubChem, National Center for Advancing Translational Sciences (NCATS)
RE007 growth inh: less growth of the S. pombe RE007 Vpr strain; 0.21% of 360,000 active; AID 651644; S. pombe RE007 Vpr strain, BacTiter-Glo ATP luminescence, 24 h; control for the full effect not named in the record; Potency, µM (doses to about 92.2 µM), inactives show at the top dose activity change, negative = less growth; active = well fitted falling curve with a large enough effect; inconclusive = small, poorly fitted or top-dose-only effect; inactive = no such curve, though single readings can be large or run the other way;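 further: on the % scale 0 is the no-effect control and ±100 the full control effect; nearly all actives have a fitted effect of over 50% in size; the assay follows cell death caused by Vpr and the record does not say whether a fall means rescue or toxicity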
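Fission yeast RE007 carrying one integrated HIV-1 vpr copy, seeded at OD 0.01 in PMG+AL medium with 23 nL pinned compound. Grown 24 h at 30 degrees; viability read by BacTiter-Glo luminescence after 5 min.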
Lassa entry inh: inhibitors of Lassa virus binding or cell entry | AID 540256 | Lassa virus pseudotype entry inhibition, cell reporter; control for the full effect not named in the record | Potency, µM (titrated, usually from 37.9 µM), inactives show at the highest dose activity change, negative = inhibition, usual class: inhibitors | 1.2% of 300,000 active; active means well fitted inhibition curve with a large enough effect; inconclusive means small, poorly fitted or top-dose-only effect, or effect the other way; inactive means flat fitted curve, though single readings scatter; tested in HEK293 cells; further: on the % scale 0 is the no-effect control and ±100 the full control effect; nearly all actives have a fitted effect of over 50% in size; luciferase read-out
SARS PLP yeast: SARS-CoV PLP inhibition in yeast; Potency, µM (highest dose often 32.9 µM), for the others: top-dose activity, positive = growth rescue; AID 485353; 0.19% of 330,000 active; S. cerevisiae expressing SARS-CoV PLpro, growth rescue; control for the full effect not named in the record; further: 0% is about no effect; nearly all actives have a fitted effect of over 55% in size; growth read by luminescence after 48 h
NS1 function inh: influenza NS1 inhibition. S. cerevisiae slowed by influenza A NS1, growth recovery by OD600. Potency, µM (titrated, usually from 46.1 µM), without a hit: top-dose activity, positive = more growth. 0.4% of 270,000 active. AID 2326; further: actives are rising curves; nearly all actives have a fitted effect of over 50% in size
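Compounds were scored for reversing the slow growth caused by influenza A NS1 in S. cerevisiae, measured by optical density at 600 nm. Assay medium contained 2% galactose at pH 6.0; NS1-free yeast of the same strain were the positive control.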
Cruzain Triton: blocks cruzain activity in presence of Triton detergent. purified cruzain, Z-FR-AMC fluorescence, 0.01% Triton. 0.43% of 200,000 active. P25779. Potency, µM, for the others: max response, negative = inhibition, most hits filed as inhibitors; active means well fitted curve in the direction sought with a large enough effect; inconclusive means small, poorly fitted or top-dose-only effect, or another doubt; inactive means no such curve, though single readings can be large; an effect the other way counts as inactive or inconclusive;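 further: plate controls were neutral wells for no effect and buffer without enzyme for full effect; nearly all actives have a fitted effect of over 40% in size; top concentration of the series not given in the record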
Target sequence (P25779 123-467 limits assumed): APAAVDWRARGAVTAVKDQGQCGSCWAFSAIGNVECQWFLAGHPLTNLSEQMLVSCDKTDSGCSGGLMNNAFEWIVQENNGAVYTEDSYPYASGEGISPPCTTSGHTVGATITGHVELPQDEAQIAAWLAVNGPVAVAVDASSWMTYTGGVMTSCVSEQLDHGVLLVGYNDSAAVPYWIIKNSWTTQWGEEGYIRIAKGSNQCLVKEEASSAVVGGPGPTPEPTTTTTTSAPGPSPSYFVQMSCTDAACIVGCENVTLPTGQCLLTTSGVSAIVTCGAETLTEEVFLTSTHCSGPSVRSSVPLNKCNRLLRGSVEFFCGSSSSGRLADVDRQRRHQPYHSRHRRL
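Detergent-containing arm of a paired screen for aggregation-based inhibition: 0.01% Triton X-100 present. Cruzain at 1.5 nM cleaved 2 uM Z-FR-AMC at pH 5.5 with 5 mM DTT; AMC fluorescence gain over 60 s measured activity.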
Cruzain inh noDet: inhibitors of Trypanosoma cruzi cruzain without detergent; purified cruzain, Z-FR-AMC fluorescence, no detergent; 2.3% of 200,000 active; P25779; Potency, µM, without a hit: max response, negative = inhibition, hits mostly inhibitors; active means well fitted curve in the direction sought with a large enough effect; inconclusive means small, poorly fitted or top-dose-only effect, or another doubt; inactive means no such curve, though single readings can be large; an effect the other way counts as inactive or inconclusive;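 further: plate controls were enzyme without inhibitor for no effect and buffer without enzyme for full effect; nearly all actives have a fitted effect of over 40% in size; top concentration of the series not given in the record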
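Purified cruzain at 1.5 nM, pre-incubated 15 min with compound at room temperature in 100 mM sodium acetate pH 5.5, 5 mM DTT, 0.00005% Triton X-100. Reaction started with 2 uM Z-FR-AMC; AMC fluorescence increase over 60 s gives rate.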
2A StopGo: lowers the luciferase signal of an FMDV 2A StopGo reporter. Potency, µM (highest dose often 57.9 µM), inactives show at the top dose signal change, negative = less light. 1.2% of 410,000 active. human cells with a luciferase reporter of 2A StopGo recoding; control for the full effect not named in the record; active = well fitted falling curve with a large enough effect; inconclusive = small, poorly fitted or top-dose-only effect; inactive = no such curve, though single readings can be large or run the other way; tested in HEK293T cells; further: on the % scale 0 is the no-effect control and ±100 the full control effect; nearly all actives have a fitted effect of over 45% in size; luciferase light after 4 h
Marburg entry inh: inhibitors of Marburg virus binding or cell entry | Marburg virus pseudotyped entry inhibition, cell reporter; control for the full effect not named in the record; about a third of the inactives were read at about 46 µM | Potency, µM (doses to about 37.8 µM), for inactives: top-dose activity change, negative = inhibition, hits mostly inhibitors | 1.8% of 300,000 active | AID 540276; active = well fitted inhibition curve with a large enough effect; inconclusive = small, poorly fitted or top-dose-only effect, or effect the other way; inactive = flat fitted curve, though single readings scatter; tested in HEK293 cells; about a fifth of its hits are not listed in these tables; further: on the % scale 0 is the no-effect control and ±100 the full control effect; luciferase read-out
* = called active by the depositor; ? = inconclusive; . = no result given; & = joins results of further samples; [ ] = remark or other dose. Unless noted, the call rests on the fitted dose curve; in most records, active means well fitted rising curve with a large enough effect; inconclusive means small, poorly fitted or top-dose-only effect; inactive means no such curve, though single readings can be large or run the other way. Potency means the concentration at half of the fitted maximal effect.

Fields – RE007 growth inh | Lassa entry inh | SARS PLP yeast | NS1 function inh | Cruzain Triton | Cruzain inh noDet | 2A StopGo | Marburg entry inh
CC(C)CN(C(=O)C1CCCCC1)C1CCS(=O)(=O)C1 (centres undefined)
  -13% | ? | -1% | . | . | . | 0% | -22%
O=C(Cc1cccs1)N(Cc1ccco1)C1(C(=O)NC2CCCC2)CCCCC1
  -11% | -15% | -2% | -12% | 3.1% | -7% | -6% | ?
O=C1NC(=O)C(=CN2CCc3ccccc32)C(=O)N1
  11% | ? | -5% | 7% | 0.3% | 10% | ? | 0%
Cc1cccc(Oc2ccccc2NC(=O)c2cnccn2)c1
  26% | -30% | 12% | -5% | -15% | -2% | -22% | 9%
COc1ccc(/C=C2\SC(=S)N(CCCC(=O)Nc3ccccn3)C2=O)cc1OC
  -7% | 0% | -3% | 2% | -5.6% | 25% | ? | -9%
CCOc1cc(N2CCOCC2)c(OCC)cc1NC(=O)Cn1[nH]c(=O)c2ccccc2c1=O
  -6% | 8% | -6%&3% | -2% | -7.7% | -1% | 6% | -1%&-1%
Cc1cccc(-c2nc(C(N)=O)c3c(n2)n(-c2ccc4c(c2)OCO4)c(=O)n3C)c1
  . | -23%[46.1 µM] | . | . | 0.4% | -23% | -6% | .
CCc1ccc(N2CC(C(=O)NNC(=O)c3ccc(F)cc3)CC2=O)cc1 (centres undefined)
  -12% | 7% | 1% | . | . | . | 9% | -5%[46.1 µM]
CCC1(C)SC(NC(C)=O)=NN1C(C)=O (centres undefined)
  7% | 4% | -2% | -1% | . | . | -11% | -4%[46.1 µM]
CN(C(=O)Nc1ccc(Cl)cc1)c1c2c(nn1C)CCCC2
  -3% | -3% | 5% | -3% | -0.8% | -12% | -9% | -14%
Cc1cc(C)n(-c2ccc(C(=O)OCC(=O)N(CC(C)C)C3CCS(=O)(=O)C3)cc2)n1 (centres undefined)
  -7% | -2% | 19% | -8% | 3.9% | ? | 21% | 21%
COC(=O)c1cccnc1SCc1ccccc1
  -16% | 15% | 10% | -7% | -5.0% | 4% | 23% | 0%
COc1ccccc1OCc1nc(C#N)c(NCc2ccco2)o1
  6% | 5% | -5% | -53% | 1.3% | -9% | 7% | -28%
CC(C)c1ccc(NC(=S)N2CCCC2)cc1
  0% | -27%[46.1 µM] | 1% | -8% | . | . | 55%[activator] | -5%[46.1 µM]
Cc1ccc(NC(=O)C2CCCN(S(=O)(=O)c3ccc4c(c3)CCCC(=O)N4)C2)cc1Cl (centres undefined)
  . | ? | . | . | -8.7% | 23% | ? | .
O=C(COc1nncc2ccccc12)NCC(F)(F)F
  10% | 15%[46.1 µM] | -5% | . | . | . | 7% | ?
Fc1ccc(C(c2nnc(-c3ccccc3)o2)N2CCN(c3ccccc3)CC2)c(Cl)c1 (centres undefined)
  . | ? | . | . | -4.7% | -1% | -27% | .
CC1CC(C)CN(S(=O)(=O)c2ccc(NC(=O)CN3C(=O)NC(C)(c4ccccc4)C3=O)cc2)C1 (centres undefined)
  1% | 10% | 12% | 17% | . | . | -4% | ?
COc1ccc(O[C@H]2C=C[C@@H](c3ccccc3)O[C@@H]2CO/N=C(\C)CCN2CCCCc3nc(C)c(C)cc32)cc1
  . | 5% | -10% | -69% | -0.8% | -4% | . | ?
O=C(Nc1nc2n(n1)C(c1ccc(F)cc1)C=C(c1ccccc1)N2)c1ccc(Cl)cc1 (centres undefined)
  . | -1%[46.1 µM] | . | . | -3.9% | 3% | -24% | -18%[46.1 µM]
COc1cc(C(=O)Nc2ccc(S(=O)(=O)NC(C)(C)C)cc2)cc(OC)c1OC
  2% | -1% | 8% | 5% | -9.5% | -8% | 39%[activator] | 0%
CCN(CC)CCN1CNC(=S)N(c2ccccc2OC)C1
  1% | 11% | 1% | 5% | . | . | 0% | 1%[46.1 µM]
COc1cc(-c2noc(CCC(=O)Nc3cc(C)ccc3C)n2)cc(OC)c1OC
  . | -14%[46.1 µM] | . | . | -4.4% | ? | -15% | -12%[46.1 µM]
c1ccc(CSc2ncn(-c3ccccc3)n2)cc1
  -20% | -11% | -5% | -87% | -3.5% | 2% | 10% | ?
Clc1ccc(SCc2cc(-c3ccc(Cl)cc3)on2)cc1
  -2% | 13% | 4% | 3% | -1.4% | 0% | 5% | 21%
O=c1c2ccccc2nc(-c2ccc(Cl)cc2)n1CCCOc1ccccc1F
  . | -1%[46.1 µM] | . | . | -1.9% | 4% | -4% | 14%[46.1 µM]
FC(F)Oc1ccc(NC(=S)N2CCc3ccccc32)cc1
  -17% | 8% | 12% | -2% | . | . | 31%[activator] | 29%[46.1 µM]
O=C(CCCCCN1C(=O)c2cccc3cccc(c23)C1=O)N1CCOCC1
  6% | 14% | -7% | -12% | -3.0% | -5% | -7% | 7%
CCCNC(=O)CCNC(=O)c1ccc(C(C)(C)C)cc1
  6% | 39%[14.3 µM] | 3% | -3% | 4.0% | 6% | 18% | ?
O=C(NC12CC3CC(CC(C3)C1)C2)N1CCN(c2ncccn2)CC1
  7% | ? | 0% | -3% | . | . | -11% | ?

Reformatted: entries from further up
smiles	RE007 growth inh	Lassa entry inh	SARS PLP yeast	NS1 function inh	Cruzain Triton	Cruzain inh noDet	2A StopGo	Marburg entry inh
O=c1c2ccccc2nc(-c2ccc(Cl)cc2)n1CCCOc1ccccc1F	.	-1%[46.1 µM]	.	.	-1.9%	4%	-4%	14%[46.1 µM]
FC(F)Oc1ccc(NC(=S)N2CCc3ccccc32)cc1	-17%	8%	12%	-2%	.	.	31%[activator]	29%[46.1 µM]

The results go on.
Fields – RE007 growth inh | Lassa entry inh | SARS PLP yeast | NS1 function inh | Cruzain Triton | Cruzain inh noDet | 2A StopGo | Marburg entry inh
CC1=Nc2cccc3cccc(c23)N1C
  -16% | 9% | 4% | 26% | -2.7% | 7% | -20% | ?
CCc1ccc(OCC(=O)NC(=S)Nc2ccc(C(=O)O)cc2)cc1
  -5% | -3% | -1% | 4% | . | . | 0% | -12%[46.1 µM]
CCCCS(=O)CC(CS(=O)CCCC)OC(=O)c1ccc(C)cc1 (centres undefined)
  -2% | -2% | 0% | 3% | 4.9% | 2% | 43%[activator] | 7%
CCCOc1ccc(C2C(=O)N(C3CCCCC3)CC(=O)N2CCC)cc1OC (centres undefined)
  5% | -12% | -3% | -7% | -3.9% | 18% | -17% | 6%
NS(=O)(=O)c1ccc(CCNC(=O)c2ccccc2-c2ccccc2)cc1
  0% | -11% | -5% | 22% | . | . | 4% | -9%[46.1 µM]
CCOc1ccc(-n2cc(C(=O)Nc3cccc(Cl)c3)c3cc(OC)c(OC)cc3c2=O)cc1
  -2% | 2% | -2% | 21% | 1.8% | ? | 0% | -27%
CCOC(=O)N1CCC(NC(=O)C2CCN(S(=O)(=O)c3cccc4cccnc34)CC2)CC1
  -7% | . | -2% | 4% | 0.5% | 12% | ? | -6%
Cc1ccc(/C=C/C(=O)N2CCc3ccccc32)o1
  -90% | ? | -19% | -9% | -12% | -27% | -30% | ?
COc1ccc(S(=O)(=O)NCc2nc(-c3ccccc3)no2)cc1
  . | 4%[46.1 µM] | . | . | -4.3% | 2% | 2% | -14%[46.1 µM]
Cc1cccc(CCNC(=O)CCc2c(C)nc3ncnn3c2C)c1
  -5% | 21%[46.1 µM] | 3% | -11% | -0.5%&3.3% | 0%&9% | 2%&19% | -3%[46.1 µM]
CC1CCN(C(=O)CSc2nnc(-c3ccc(S(=O)(=O)N4CCOCC4)cc3)n2C)CC1
  -7% | 0% | -19% | -6% | 0.7% | 16% | . | 17%
NC(=O)c1nsc(C(=O)N(c2ccccc2)C(C(=O)NCC2CCCO2)c2ccc(F)cc2)c1N (centres undefined)
  -8% | -28%[46.1 µM] | 3% | 21% | . | . | -18% | ?
Cc1cc(NC(=O)c2ccc(C)o2)no1
  -16% | 8% | -4% | 6% | . | . | 48%[activator] | -18%
CCOC(=O)C1(CCCc2ccccc2)CCN(C(=O)c2cnn(CC)c2)CC1
  15% | ? | 1% | 7% | . | . | -1% | ?
O=C(NCC(=O)N1CCN(c2ccccc2F)CC1)c1ccco1
  6% | 17%[46.1 µM] | 10% | 12% | . | . | 12% | 0%[46.1 µM]
CC1=C(C(N)=O)C(c2ccc(F)cc2)n2nc(-c3ccccc3Cl)nc2N1 (centres undefined)
  . | -5%[46.1 µM] | . | . | -1.9% | -2% | 0% | .
Cc1ccc(CNC(=O)CN(c2cc(C)cc(C)c2)S(=O)(=O)c2c(C)noc2C)cc1
  . | 10%[46.1 µM] | . | . | -0.6% | 7% | -11% | 4%[46.1 µM]
CC(C)C(=O)Nc1nc2cc3c(cc2s1)OCO3
  3% | . | -10% | 1% | -6.6% | -5% | -3% | .
CC(C)(C)NC(=O)CSC(=Nc1ccccc1F)NC#N
  2% | 8% | 27% | -3% | -5.0% | -14% | 15% | 16%
COc1ccc(CC(=O)N2CC(=O)Nc3ccc(Br)cc3C2c2ccc(F)cc2)cc1OC (centres undefined)
  . | 8%[46.1 µM] | . | . | -4.0% | 19% | 0% | -14%[46.1 µM]
O=C(CNC(=O)c1ccc(Cl)cc1Cl)OCCOc1ccccc1F
  10% | 16% | 2% | . | . | . | 9% | -12%
Cc1ccc(NC(=O)[C@H](CC(C)C)NC(=O)[C@@H]2Cc3ccccc3CN2)cc1
  9% | . | 4% | 16% | . | . | 6% | .
Cc1ccc(CNC(=O)Cn2c(=O)n(-c3ccccc3)c(=O)c3c2c2cc(C)ccc2n3C)cc1
  . | 15%[46.1 µM] | . | . | -0.9% | 8% | -15% | .
CCC(C(=O)NC1CCC(C)CC1)n1nc(C)c2sc3ccccc3c2c1=O (centres undefined)
  . | 0%[46.1 µM] | . | . | -1.7% | -4% | 20% | 13%[46.1 µM]
O=C(Cn1c(=O)oc2ccccc21)N1CCOCC1
  8% | . | -1% | -4% | . | . | -13% | .
COc1ccc(-c2[nH]ncc2C(=O)NCc2cccc(Cl)c2)cc1
  . | . | . | . | -3.3% | -6% | -17% | -23%[46.1 µM]
